MLL AF4-AF9 inh: inhibitors of AF4 peptide binding to AF9, primary screen, biochemical, AlphaScreen, biotin-AF4 peptide, FLAG-AF9, single point. inhibition, % at 10 µM. 350,000 tested, 0.47% active;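 active = every replicate reaching a set inhibition limit, whatever the replicate mean, cut at about 25% in these data; inconclusive = mean inhibition reaches that limit but some replicates miss it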;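 note: 0% = plate neutral control median and 100% = total signal loss; the record names both 10 and 1 µM as test concentration; the first replicate is given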
UCH37 DUB inh: inhibitors of human UCH37 deubiquitinase, primary screen, biochemical, Ub-AMC cleavage, fluorescence. 330,000 tested, 0.33% active. purified proteasome/UCH37. inhibition, % (test concentration not listed);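 active = mean of two replicates above 20%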;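 note: 0% = compound-free wells with enzyme and 100% = wells lacking proteasome; stock transfer was 100 nL into about 20 µL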
Target sequence (Q9Y5K5 whole entry, looked up): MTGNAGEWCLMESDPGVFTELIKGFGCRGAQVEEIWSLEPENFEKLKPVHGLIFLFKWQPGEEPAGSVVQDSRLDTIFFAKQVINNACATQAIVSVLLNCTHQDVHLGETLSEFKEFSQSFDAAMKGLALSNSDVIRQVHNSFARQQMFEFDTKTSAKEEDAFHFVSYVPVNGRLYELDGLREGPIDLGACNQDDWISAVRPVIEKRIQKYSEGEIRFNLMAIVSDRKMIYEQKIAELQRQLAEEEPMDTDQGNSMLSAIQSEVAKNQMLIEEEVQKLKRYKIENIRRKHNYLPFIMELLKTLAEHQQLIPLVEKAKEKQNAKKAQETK
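Material: Human UCH37 enzyme supplied as purified proteasome complex | Schedule: 30 min compound-proteasome preincubation then 25 min substrate reaction, room temperature | Detection: AMC fluorescence from Ub-AMC cleavage, excitation 355 nm, emission 460 nm | Benchmarks: Wells without proteasome as full block, compound-free enzyme plus substrate as uninhibited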
A1 inh: caspase 3/7 activation in MEF A1-2A-BIM cells, primary screen, A1 inhibitor project, cell-based, luminescence, HTS | Caspase-Glo 3/7 luminescence, 3 h; percent of clofoctol response, vehicle zero | caspase activation, % (test concentration not listed) | 330,000 tested, 0.066% active;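 active = over half of replicate activation scores above 10%, or exactly half above 10 with the replicate mean above 10; inconclusive = replicate mean below 10 yet half the replicates above 10; inactive = over half of replicates below 10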;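 note: wells of about 30 µL received 50 nL stock; many hits fall short of the cut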
Beta cell apopt: inhibitors of cytokine-induced beta cell apoptosis, primary screen, luminescence; INS-1E cytokine-induced death, ATP luminescence, 48 h; percent of positive-control rescue, neutral wells zero; protection from apoptosis, % (no concentration beside the values); 300,000 tested, 0.8% active; AID 435005, 2010;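 active = all replicates at 75% or more, or half of them and the mean; inconclusive = half reach 75% but not the mean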;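 note: 0% = cytokine-treated negative control wells and 100% = positive control rescue; higher means more ATP so stronger rescue from cytokine killing; wells of about 40 µL received 100 nL stock; the first replicate is given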
rRNA inh HTS: reduced GFP signal of wild-type E. coli, primary screen, bacterial rRNA inhibitor project, GFP/RFP fluorescence, OD600, single point. 350,000 tested, 1.6% active. E. coli WT GFP vs humanized-ribosome RFP mutants, 24 h; stronger effect = lower value; DMSO median 0, no signal -100. GFP signal change (wild-type ribosome), % (test concentration not listed);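 active = significant combined selectivity score with lowered wild-type GFP, culture density cut under 30%, mutant RFP and density less affected; inactive = any of these conditions unmet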; note: one replicate is shown; some compounds called inactive have numbers as strong as hits
T cruzi repl: inhibitors of intracellular T. cruzi growth, primary screen, luminescence, NIH3T3 host cells; T. cruzi beta-gal in NIH3T3, 90 h; inhibition, % (concentration not given with the values); 300,000 tested, 1.4% active; AID 1885, 2009;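 active = mean inhibition across valid replicates above about 55%, limit read from the data; inconclusive = mean below that limit but half or more replicates reach it; inactive = mean below it, under half of replicates reach it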;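 note: signal also drops with host cell toxicity which is not excluded here; 0% = plate median of DMSO wells and 100% = zero luminescence signal; higher percent means less beta-gal luminescence so fewer parasites; stock transfer was 50 nL into about 50 µL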
FGF22 binding: binders of human FGF22 protein, primary screen, FGF22 synaptogenesis inhibitor project, biophysical, thermal shift, single point. recombinant FGF22 thermal shift, SYPRO orange fluorescence; percent of sucrose octasulfate shift, DMSO zero. calls only at 9.99 µM. 340,000 tested, 1.5% active. AID 651658, 2012;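 active = melting point raised past a set limit in the mean and every replicate; inconclusive = no clear call; three in four hits are not shown here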
Target sequence (Q9HCT0 whole entry, looked up): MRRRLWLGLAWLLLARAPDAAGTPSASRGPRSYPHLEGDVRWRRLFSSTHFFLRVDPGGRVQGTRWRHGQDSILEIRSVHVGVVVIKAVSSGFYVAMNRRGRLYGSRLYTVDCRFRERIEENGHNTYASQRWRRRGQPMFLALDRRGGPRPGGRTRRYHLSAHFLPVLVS
E coli growth: E. coli growth inhibition, primary screen, OD600; OD600 absorbance (no concentration beside the values); AID 1053175, 2014; Escherichia coli growth, 23 h; stronger effect = lower value; 330,000 tested, 0.21% active;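 active = OD600 absorbance below the run mean of sample wells minus 3.6 SD, in any replicate, cut at about 0.56 in these data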;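 note: stock transfer was 300 nL into about 60 µL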
rRNA inh HTS OD600: second read-out of rRNA inh HTS, no call of its own (marks repeat the call); OD600 change, %; measured here: OD600 growth;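 optical density of the mix in the first replicate; 0 = DMSO median and -100 = no signal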
rRNA inh HTS RFP: second read-out of rRNA inh HTS, no call of its own (marks repeat the call); RFP signal change, %; measured here: RFP humanized mutant strains;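 first replicate; 0 = DMSO median and -100 = no signal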
Active calls of the source: *; i = inactive; ? = inconclusive; · = no result given. This is a subset; count on the stated rates, not on these rows.

canonical_smiles	MLL AF4-AF9 inh	UCH37 DUB inh	A1 inh	Beta cell apopt	rRNA inh HTS	rRNA inh HTS OD600	rRNA inh HTS RFP	T cruzi repl	FGF22 binding	E coli growth
COc1ccc(CNC(=O)COc2ccccc2C(=O)c2cnn(-c3ccccc3)c2)cc1OC	3.2	0.7	·	·	-29.0	-38.8	-7.0	·	i	0.668
CN(CC(=O)NCc1ccncc1)S(=O)(=O)c1ccc(Br)cc1	-2.2	2.7	0.0	-7.3	11.7	8.2	0.4	-10.4	i	0.688
CCCCC(=Nc1ccc(N)cc1)C1=C(O)C(C(=O)OC)C(C)(C)CC1=O (centres undefined)	·	4.5	0.0	6.3	·	·	·	-7.5	·	0.7
Cc1noc(/C=C/N(C)C)c1S(=O)(=O)N1CCN(c2ccc(F)cc2)CC1	2.3	6.7	0.6	0.8	9.4	10.1	5.0	-1.8	i	0.696
Cc1[nH]n(-c2cccc(Cl)c2)c(=O)c1-c1ccc(Cl)cc1	·	2.4	0.4	20.2	·	·	·	-23.0	·	0.663
CC(=O)Nc1ccc(-c2csc(NC(=O)C3CC(=O)N(c4ccc5c(c4)OCCO5)C3)n2)cc1 (centres undefined)	1.2	5.0	0.0	-2.9	-15.1	-20.6	-8.1	-8.3	i	0.661
COc1ccc(N2C(=O)CC(SCCc3nc4ccccc4[nH]3)C2=O)cc1 (centres undefined)	·	3.4	0.0	-5.5	-4.2	-7.9	4.9	2.7	·	0.67
COc1ccc(CCN(C(=O)C(F)(F)F)C(C(=O)NC2CCCC2)c2cccs2)cc1OC (centres undefined)	-14.7	2.7	0.3	-7.3	-2.7	2.0	-0.5	11.9	i	0.696
CC(C)(C)c1cc(C(C)(C)C)cc(S(=O)(=O)CCc2ccccn2)c1	·	2.8	-0.9	-9.1	·	·	·	6.6	·	0.691
CCOC(=O)C1=C(C)NC(=O)NC1c1ccc([N+](=O)[O-])o1 (centres undefined)	0.7	9.8	0.2	2.1	3.3	-0.5	3.4	26.1	i	0.693
CC(=O)c1ccc(NC(=O)CCSCCC(=O)Nc2ccc(C(C)=O)cc2)cc1	·	0.4	-1.0	-2.5	·	·	·	-6.4	·	0.745
O=C(COC(=O)c1ccc(F)cc1F)NCc1ccc2c(c1)OCO2	-1.5	1.0	-0.5	-4.0	10.3	11.6	0.8	·	i	0.68
O=C(Nc1cc(S(=O)(=O)Nc2ccc(Cl)cc2)ccc1N1CCCCC1)c1ccc(F)cc1	2.5	-2.1	0.1	111.7*	7.3	7.0	6.4	19.2	i	0.681
Cc1cc2nc(/C=C/c3nc4cc(C)c(C)cc4[nH]3)[nH]c2cc1C	-4.8	·	-5.9	-3.4	5.0	-2.2	-0.4	-6.2	i	·
Cn1/c(=N/NC(=O)c2ccccc2Br)sc2ccccc21	-8.3	·	0.1	-3.3	1.4	-2.3	1.5	4.0	i	·
Cc1cnc(CN(C)C(=O)C2CCC(=O)N(CCc3cccc(F)c3)C2)[nH]1 (centres undefined)	2.9	-0.3	·	·	8.9	3.6	-0.2	-6.7	i	0.65
CC1CCCC(NC(=O)c2cccc(S(=O)(=O)N3CCN(c4ccccc4)CC3)c2)C1C (centres undefined)	?	0.1	0.3	·	3.1	12.6	-0.4	25.4	i	0.705
CCOC(=O)c1cnn(-c2ccccc2)c1-n1cccc1C(=O)C(=O)Nc1ccc(OC)cc1	·	2.7	0.4	-0.2	·	·	·	3.8	·	0.761
COc1ccc(-c2oc3ccccc3c2C(=O)OCc2ccc([N+](=O)[O-])cc2)cc1	2.1	4.0	0.8	9.8	7.7	9.7	2.8	-13.0	i	·
CCCCCn1nc(C(=O)N(CCOC)c2c(N)n(CCCC)c(=O)[nH]c2=O)c2ccccc2c1=O	1.9	-0.2	0.3	-0.7	1.0	13.6	2.2	-4.2	·	0.689
Cc1cccc(CCNC(=O)CC2C(=O)NCCN2CC2CCCCC2)n1 (centres undefined)	0.5	-12.4	0.4	-5.3	5.8	11.0	3.8	-34.3	i	0.66
CCCCCC(=O)Nc1ccc(S(=O)(=O)NC2=NCCCCC2)cc1	-0.2	3.4	1.8	3.3	1.1	-0.2	-2.7	·	i	0.688
CN(Cc1ccno1)Cc1cn(C)nc1-c1ccc(Oc2ccccc2)cc1	4.0	4.7	-0.3	-1.8	-33.7*	-20.2*	-7.3*	-8.5	i	0.677
Cc1cc(Br)ccc1NC(=O)CN(C)C(=O)c1ccc(-n2cncn2)c([N+](=O)[O-])c1	2.2	2.1	-0.2	-1.2	·	·	·	·	i	0.594
CC(C)N1C(=O)C2ON(c3ccccc3)C(c3cccs3)C2C1=O (centres undefined)	·	3.9	-0.4	-2.5	·	·	·	7.8	·	0.703
[O-][n+]1ccccc1/C=C/c1ccccc1	1.0	-18.5	0.1	0.5	-26.2*	2.0*	3.7*	-0.9	i	0.696
CC1(C)CC(=O)C=C(NCc2ccc(C(=O)O)cc2)C1	-9.0	2.0	0.1	-5.4	4.8	4.5	-9.8	-11.5	i	0.677
COc1cc(NS(=O)(=O)c2ccc(NC(=O)CSC3=NCCS3)cc2)nc(OC)n1	·	2.1	1.3	-10.2	·	·	·	-2.7	·	0.756
COc1c(C)cc(C(=O)C2CCCN(C(=O)Cn3ccc(C)n3)C2)cc1C (centres undefined)	-0.9	3.9	0.6	-0.6	-2.4	5.8	0.6	8.4	i	0.705
CC(C)NC(=O)C(=O)Nc1cc2c3c(c1)C(C)C(=O)N3CCC2 (centres undefined)	-1.6	2.3	-0.1	-1.4	-1.8	2.7	-2.9	-5.6	i	0.683
Cc1nc2ccccc2n1S(=O)(=O)N(C)C	·	3.2	-1.0	-2.0	·	·	·	8.2	·	0.653
Cc1ccccc1CN(C)C(=O)CNC(=O)c1ccc2ccccc2c1	-3.7	5.2	-1.6	-2.4	-13.0	-9.6	0.9	-2.9	i	0.693
COC(=O)CNC(c1ccccc1)c1cc(Br)ccc1NS(=O)(=O)c1ccccc1 (centres undefined)	5.0	1.8	0.0	-8.8	11.4	8.0	0.0	5.1	i	0.749
CCOC(=O)c1c(NC(=O)CS(=O)(=O)c2cn(CC)c3ccccc23)sc2c1CCCCC2	-5.8	3.3	·	-2.4	3.3	-2.6	-2.1	12.0	i	0.757
CCOC(=O)C1CCN(C(=O)CCS(=O)(=O)c2ccc3c(c2)CC(C)N3C(=O)CC)CC1 (centres undefined)	-0.4	2.2	-0.4	0.7	7.9	7.8	2.0	6.9	i	0.721
CCn1c(C(C)NC(=O)c2ccc(C)cc2)n[nH]c1=S (centres undefined)	·	2.7	-0.8	0.1	·	·	·	-20.0	·	0.673
CCC(C)NC(=O)c1ccc(NC(=O)CC2SC(N3CCCCC3)=NC2=O)cc1 (centres undefined)	-21.1	2.9	0.0	-1.3	6.7	8.2	-1.6	·	i	0.7
Cc1cc(-c2nnnn2-c2ccc(C(F)(F)F)cc2)no1	-0.6	1.9	0.5	·	4.7	-8.0	-1.1	-7.0	i	0.666
O=C(Nc1nccs1)C1CC(=O)N(c2ccccc2)C1 (centres undefined)	-0.7	0.1	-0.2	3.0	2.0	7.4	-0.1	3.4	i	0.716
Cn1c2ccccc2c2cc(/C=N/NC(=O)c3cc(O)ccc3O)ccc21	3.0	·	-0.6	2.6	-6.6	-6.7	-3.9	-3.9	i	·
CC(C)OCCCNC(=O)CN1C(=O)CC(C)(C)S(=O)(=O)c2ccccc21	-1.1	6.9	0.8	-6.3	9.2	10.8	-1.2	-8.5	i	0.731
N#C/C(=C\c1ccccc1)C(=O)NCCN1CCOCC1	-0.1	0.6	-0.5	-0.5	18.8	12.1	4.7	-30.1	i	0.715
CCCCCC(=O)Nc1cc(N(C)C)nc2ccccc12	·	-104.0	-0.1	-1.5	·	·	·	16.0	·	0.677
COc1ccc(-c2csc3[nH]c(=S)n(-c4ccccc4)c(=O)c23)cc1OC	0.2	8.7	1.0	3.2	-1.4	0.2	-0.4	-9.8	i	0.665
CCc1nccn1CCC(=O)N1CCCC(N2CCN(c3ccccc3F)CC2)C1 (centres undefined)	2.6	-0.2	0.7	0.1	6.8	5.2	1.3	9.4	i	0.691
COc1ccc(S(=O)(=O)N2CCC(C(=O)Nc3nccs3)CC2)cc1	-1.4	1.3	0.9	2.3	·	·	·	-1.8	i	0.712
Cn1c(=O)c2c(nc(Br)n2CCSc2nc3ccccc3o2)n(C)c1=O	·	1.0	-0.4	-2.3	·	·	·	·	·	0.68
CCOC(=O)CSc1nnc(CNC(=O)c2cccc(C)c2)n1C	-2.3	1.2	0.3	-1.2	8.5	9.9	-1.2	-9.5	i	0.677
Cc1sc(NC(=O)c2cccnc2)nc1-c1ccccc1	-0.7	-5.8	0.3	-2.1	19.4	28.6	8.5	-3.0	i	0.67

Rewritten with values under each structure: part of the list above.
Below each SMILES – MLL AF4-AF9 inh, UCH37 DUB inh, A1 inh, Beta cell apopt, rRNA inh HTS, rRNA inh HTS OD600, rRNA inh HTS RFP, T cruzi repl, FGF22 binding, E coli growth
CC(=O)c1ccc(NC(=O)CCSCCC(=O)Nc2ccc(C(C)=O)cc2)cc1
  ·, 0.4, -1.0, -2.5, ·, ·, ·, -6.4, ·, 0.745
O=C(COC(=O)c1ccc(F)cc1F)NCc1ccc2c(c1)OCO2
  -1.5, 1.0, -0.5, -4.0, 10.3, 11.6, 0.8, ·, i, 0.68
